# Compound activity (PubChem)
# Mtb growth = Confirmatory growth inhibition assay against Mycobacterium tuberculosis H37Rv, potency (AID 1949). most inactive calls were filed without a number and no value below 0 was filed. inhibition, % at 10 µg/mL, or IC50 in µg/mL where a hit was titrated. 100,000 tested, 1.6% active;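 active = confirmed in a dose series; inconclusive = about 50% or more but not retested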;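 note: bacteria grown 7 days with compound before Alamar blue readout; 0% = untreated bacteria and 100% = reference antibiotic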
# * = called active by the depositor; i = inactive; ? = inconclusive. A portion of the library; rates above refer to the full screens.
# A first look:
SMILES,Mtb growth
Cc1ccc(CN2C(=O)c3oc4ccc(C)cc4c(=O)c3C2c2cccc(Br)c2)cc1 (stereo not given),i
Cc1c(Br)ccc(NC(=O)CSc2nc3ccccc3[nH]2)c1C,i
Cc1ccc(S(=O)(=O)CCC(=O)Nc2ccc(Cl)cc2)cc1,i
COc1ccccc1NC(=O)CSC1=NC(c2ccccc2)CC(=O)N1 (stereo not given),i

# The list itself, from the first entry:
SMILES,Mtb growth
Cc1ccc(CN2C(=O)c3oc4ccc(C)cc4c(=O)c3C2c2cccc(Br)c2)cc1 (stereo not given),i
Cc1c(Br)ccc(NC(=O)CSc2nc3ccccc3[nH]2)c1C,i
Cc1ccc(S(=O)(=O)CCC(=O)Nc2ccc(Cl)cc2)cc1,i
COc1ccccc1NC(=O)CSC1=NC(c2ccccc2)CC(=O)N1 (stereo not given),i
O=c1c(-c2ccccc2)coc2c(CN3CCCCC3)c(O)ccc12,i
O=C(CSc1nc2ncccc2[nH]1)Nc1ccccc1Cl,i
CCOc1ccc(C(C)C)cc1S(=O)(=O)Nc1ccc(Cl)cn1,i
c1ccc(-n2nnnc2CSc2nnnn2-c2ccccc2)cc1,i
COc1ccc(-n2c(C)nnc2SCC(=O)Nc2ccc(C)c(C)c2)cc1,i
CCn1c(S(=O)(=O)O)nc2ccccc21,i
CCN(CC)C(=O)C1CCN(S(=O)(=O)c2ccc3oc4ccccc4c3c2)CC1,i
O=C(Cn1nc(-c2ccc(Cl)cc2)c2ccccc2c1=O)N1CCCC1,6%
CCOc1ccc(C2C(C(=O)OC)=CN(Cc3ccc(OC)c(OC)c3)C=C2C(=O)OC)cc1,i
COc1ccc2c(c1)c(CC(=O)NCc1ccccn1)c(C)n2C(=O)c1ccc(Cl)cc1,i
CCOc1ccc(C2CC(=O)C3=C(C2)NC(C)=C(C(=O)OC)C3c2cccs2)cc1OC (stereo not given),i
COCC(=O)Nc1ccccc1NC(C)=O,i
O=C1CC(C(=O)Nc2ccccc2)N=C(N2CCCCC2)N1 (stereo not given),i
N/C(=N\OC(=O)c1cccnc1)c1ccc(Cl)cc1Cl,i
COc1cccc(Oc2ccc(N)cc2)c1,20%
CC(=O)Oc1ccc(C(=O)Nc2ccc(Oc3ccc4c(c3)C(=O)NC4=O)cc2)cc1,i
COc1cc(OC)nc(NC(=O)Nc2ccc(Cl)c(Cl)c2)n1,i
C=CCOc1cc(Cl)c(C2NC(=O)NC(C)=C2C(=O)NCc2ccccc2)cc1OCC (stereo not given),i
O=C(CSc1nc2ccc(NC(=O)c3ccc([N+](=O)[O-])cc3)cc2s1)NCC1CCCO1 (stereo not given),i
CC(=O)Nc1cc(C(F)(F)F)ccc1N1CCOCC1,i
Cc1cccc(Cc2cnc(NC(=O)/C=C/c3ccc(Cl)c(Cl)c3)s2)c1,i
Cc1ccccc1OCC(=O)Nc1ccc(C(=O)Nc2nccs2)cc1,i
COc1ccc(S(=O)(=O)NCc2ccccc2C)cc1Br,3%
CCOc1cc(C=O)ccc1OCC(=O)Nc1cccc(Cl)c1,43%
O=C(Cc1ccc(O)cc1)NNC(=S)Nc1cccc(F)c1,i
O=C(CSc1nnnn1-c1ccc2c(c1)OCO2)NCc1ccccc1,i
O=C(COc1ccc(C(=O)NC2CCCCC2)cc1)Nc1ccccc1C(F)(F)F,i
COc1ccc(S(=O)(=O)N2CCC(C(=O)Nc3ccc4c(c3)OCO4)CC2)cc1,i
O=S(=O)(NCc1ccccc1Cl)c1cccs1,2%
N#CC1(c2ccc(OCc3ccccc3)cc2)CCC(=O)N1Cc1ccccc1 (stereo not given),10%
CCCC(=O)Oc1ccc(C(=O)Nc2cc(Cl)ccc2Cl)cc1,i
O=C(CSc1nc2ccccc2s1)NNC(=S)Nc1ccc(F)c(Cl)c1,i
O=C(NC(=S)NCc1ccccc1)c1ccccc1I,i
CCN(CC)C(=S)Nc1ccc(OC)cc1,i
O=C1CC(c2c[nH]c3ccccc23)C(=O)N1c1ccc2ccccc2c1 (stereo not given),i
COC(=O)c1c(C)oc2ccc(NS(=O)(=O)c3cc(C)c(C)cc3C)cc12,5%
COC(=O)CCN1CC2CC(C1)c1cccc(=O)n1C2 (stereo not given),10%
COc1ccc(-n2c(SCC(=O)c3ccccc3)nnc2-c2ccncc2)cc1,i
COc1ccc(S(=O)(=O)Nc2ccc(C)c(C)c2)c(Cl)c1Cl,i
CCC(C)Nc1ncnc2sc(C3COc4ccccc4O3)cc12 (stereo not given),24%
CCOc1ccc(NC(=O)CSc2nnc(CC(=O)Nc3ccc(Cl)c(Cl)c3)n2CC)cc1,i
CCCCc1cc(=O)oc2cc(OCc3ccccc3OC)ccc12,8%
O=C(Nc1ccccn1)C(=O)N1CCCCC1,1%
COc1ccc(-c2cc(C(F)F)n3ncc(C(=O)Nc4ccc(OC)c(OC)c4)c3n2)cc1,i
Cc1cc(Cl)ccc1NS(=O)(=O)c1ccc2c(c1)OCCO2,i
COC(=O)Cc1cc(=O)[nH]c(/N=C(\N)Nc2ccc(C(C)C)cc2)n1,i
CCOC(=O)C1=C(N)SC2=C(C(=O)CC(C)(C)C2)C1c1ccco1 (stereo not given),i
COc1ccccc1N1CCN(C2CCN(C(=O)c3ccc(F)cc3)CC2)CC1,i
COc1cccc(CCNCc2ccc(Br)cc2)c1,i
C=CCN1C(=O)C(O)(CC(=O)c2ccc(F)cc2)c2cc(Br)ccc21 (stereo not given),i
COc1ccc(S(=O)(=O)N(C)CC(=O)NC2CCCCC2)cc1C,2%
CCN1CCN(C(=S)c2ccc(O)c(OC)c2)CC1,i
COC(=O)c1ccccc1NC(=O)c1ccc(COc2ccccc2OC)cc1,1%
CCCCSC1=C(C#N)C(c2cccs2)CC(=O)N1 (stereo not given),i
Cc1ccccc1N1C(=O)N(c2ccc(Cl)cc2)C2CS(=O)(=O)CC21 (stereo not given),i
N#CCc1ccc(NC(=O)C(c2ccccc2)c2ccccc2)cc1,i

# Further results.
SMILES,Mtb growth
COCCNC(=O)c1c(C)c(-c2cccc(Cl)c2)nc2ccccc12,i
Cc1cccc(-c2nnc(SCC(=O)Nc3ccc(Br)cc3F)o2)c1,i
Cn1cccc1/C=C(/C#N)c1ccc(Cl)cc1,i
CN(CCOCCOc1ccc(F)cc1)Cc1ccccc1,i
COc1cccc(OC)c1C(=O)Nc1ccc(C(=O)NCC2CCCO2)cc1 (stereo not given),i
Cc1nnc(NC(=O)c2c(F)c(F)c(F)c(F)c2F)s1,i
Cc1ccc(NC(=S)NCCN2CCOCC2)cc1C,i
Cc1cc(I)ccc1NC(=O)CSCc1ccccc1Cl,0%
O=C(ON1C(=O)CCC1=O)c1sc2ccccc2c1Cl,i
O=c1oc2c(CN3CCCC3)c(O)ccc2c2c1CCC2,2%
C=CCOc1ccccc1C(=O)Nc1ccc(C)cc1C,i
O=C(CNc1ccccc1)c1ccc([N+](=O)[O-])cc1,i

# The last 5 entries of the part above are carried over, then new ones follow.
SMILES,Mtb growth
Cc1cc(I)ccc1NC(=O)CSCc1ccccc1Cl,0%
O=C(ON1C(=O)CCC1=O)c1sc2ccccc2c1Cl,i
O=c1oc2c(CN3CCCC3)c(O)ccc2c2c1CCC2,2%
C=CCOc1ccccc1C(=O)Nc1ccc(C)cc1C,i
O=C(CNc1ccccc1)c1ccc([N+](=O)[O-])cc1,i
CN(C)C(=O)c1cccc2c1NC(c1ccc([N+](=O)[O-])cc1)C1CC=CC21 (stereo not given),i
O=C(NCc1ccccn1)C1c2ccccc2Oc2ccccc21,i
CN1CCN(C(=O)CN(c2cccc(Cl)c2)S(=O)(=O)c2ccc(Cl)cc2)CC1,1%
COc1ccc(OC)c(NC(=O)C(=S)N2CCOCC2)c1,1%
CC(=O)Nc1ccc(C(=O)NCCc2c[nH]c3ccc(C)cc23)cc1,i
O=Cc1cn(CC(=O)NC2CCCCC2)c2ccccc12,i
CC1=C(C(=O)N2CCCCC2)C(c2cccc(F)c2)C2=C(CCCC2=O)N1 (stereo not given),i
COc1ccc(N2CCN(c3c(-c4ccccc4)c4cc(Cl)ccc4[nH]c3=O)CC2)cc1,25%
CCC(C)(C)c1ccc(OCCNC)cc1,i
COc1cccc(C(O)Cc2nc3ccccc3n2C)c1OC (stereo not given),i
CCC(C(=O)Nc1cc(Cl)c(OC)cc1OC)c1ccccc1 (stereo not given),i
CSc1nc2c(c(=O)[nH]1)C(c1ccncc1)C1=C(CC(C)(C)CC1=O)N2 (stereo not given),i
Cc1ccc(N(C(C)C(=O)N2CCOCC2)S(C)(=O)=O)cc1C (stereo not given),i
Cc1sc(NC(=O)C2CCCCC2C(=O)O)nc1-c1ccccc1 (stereo not given),i
COc1ccc(NC(=O)C2CCCN2S(=O)(=O)c2ccc(C)cc2)cc1 (stereo not given),i
COC(=O)c1ccccc1NC(=O)c1nc2nc(C)cc(C(F)F)n2n1,i
CCOC(=O)N1CCN(c2cc3[nH]c(=S)[nH]c3cc2F)CC1,i
COc1ccc(OC)c(C(C)NC(=O)Nc2cccc(Cl)c2C)c1 (stereo not given),i
CN1CCN(C(=O)C23CCC(C)(c4nc5ccccc5nc42)C3(C)C)CC1 (stereo not given),i
O=C(Cn1cc(C(=O)c2cccs2)c2ccccc21)NCCc1ccccc1,27%
COc1ccc(-c2oc3ncn4nc(-c5ccc(F)cc5)nc4c3c2-c2ccc(OC)cc2)cc1,i
O=C(O)C1C2C=CC(C2)C1C(=O)Nc1ccc2c(c1)OCCO2 (stereo not given),i
Cc1ccc(C(=O)Nc2ccccc2C(=O)N2CCCC(C)C2)cc1 (stereo not given),i
O=c1[nH]c(=O)c2sc3nc4c(cc3c2[nH]1)CCCC4,i
CCC(C)c1ccccc1OCCOCCN1CCN(C)CC1 (stereo not given),i
CCC(Oc1ccccc1)C(=O)Nc1ccccc1NC(=O)C(CC)Oc1ccccc1 (stereo not given),i
COc1ccc(CCNS(=O)(=O)c2ccc(-c3ccc(Cl)cc3)cc2)cc1OC,i
O=C(Oc1cc2oc(=O)c3c(c2cc1Cl)CCCC3)c1ccco1,i
COC(=O)c1c(NC(=O)c2cnccn2)sc2c1CCC(C(C)(C)C)C2 (stereo not given),i
Cc1ccc(Cl)cc1N1CCN(C(=O)c2ccc(CN3CCc4ccccc4C3)cc2)CC1,i
COC(=O)CSc1nnc(-c2cc(OC)c(OC)c(OC)c2)n1C,i
COc1cc2c(cc1OC)C(=O)NC1(CCCC1)C2,i
O=C(N1CCN(Cc2ccc3c(c2)OCO3)CC1)C(Cl)(Cl)Cl,i
Cc1c(Cl)cccc1NC(=O)C1CC(=O)N(c2ccc(OC(C)C)cc2)C1 (stereo not given),i
CCOC(=O)c1cnn(Cc2ccccc2Cl)c1N,32%
CCCC(=O)Nc1ccccc1NC(=O)Cc1ccc(Cl)cc1,i
O=C(NCCO)c1ccccc1I,i
CCn1cc(C(=O)O)c(=O)c2cnc(N3CCN(C(=S)NC(=O)C4c5ccccc5Oc5ccccc54)CC3)nc21,i
O=C(c1ccncc1)N1CCN(C2CCCC2)CC1,1%
CCOC(=O)CSc1nc2ccc(Br)cc2c(=O)n1-c1ccccc1,i
Cc1ccc(S(=O)(=O)N(CC(=O)Nc2c(C)cc(C)cc2C)c2cccc(Cl)c2)cc1,i
C=CCN(CC#CCOc1ccccc1OC)CC=C,i
CCOc1ccccc1NC(=O)c1cnccn1,i
Clc1ccc(CNc2ccc(Br)cn2)cc1,5%
COc1ccc(NC(=O)NC(=O)c2c(Cl)ccc(Cl)c2OC)cc1,i
COc1nc(-c2cccs2)cc(-c2ccc(C(C)C)cc2)c1C#N,10%
OC1/C(=C/c2ccsc2)N2CCC1CC2 (stereo not given),i
CN1C(=O)c2cccc3c(N4CCCCCC4)ccc(c23)C1=O,10%
COc1ccc(Oc2ccc(C#N)c(C#N)c2)cc1,i
Cc1cccc(N2CCN(C(=O)CCCC(=O)N3CCN(c4cccc(C)c4C)CC3)CC2)c1C,?
O=C(Nc1ccccc1Oc1ccccc1)C(F)(F)F,i
COc1ccc(NC(=S)Nc2ccc(S(=O)(=O)Nc3c(C)cc(C)cc3C)cc2)cc1OC,i
CCN1C(=O)CC(N2CCC(C(=O)N3CCOCC3)CC2)C1=O (stereo not given),i
CCN1CCN(C2CCN(C)CC2)CC1,0%
COc1ccccc1N1CCN(C(=O)CSc2nc3ccccc3o2)CC1,2%
CCOc1ccc(NC(=O)COc2ccc(C(=O)NC3CCCCC3)cc2)cc1,i
CCCCc1ccc(OC(=O)CSc2ccc(S(C)(=O)=O)cc2[N+](=O)[O-])cc1,i
Cc1ccc(C)c(N2CCN(C(=S)Nc3ccccc3)CC2)c1,4%
O=C(OCc1ccc(F)cc1F)c1ccc(F)cc1,i
Cc1sc2ncn(CC(=O)Nc3ccc(F)cc3)c(=O)c2c1C,i
CC1=CCCC(C)(C)C1C(=O)CC(C)NNC(N)=O (stereo not given),i
COc1ccc(C(=O)NCc2nnc(SCc3ccc(Cl)cc3)n2-c2ccccc2)cc1,29%
CCC(C)N(C(=O)c1ccccc1C(=O)N(C(C)CC)C(C)CC)C(C)CC (stereo not given),i

# A draw from above in order of length of the SMILES, lowest first.
SMILES,Mtb growth
CCN1CCN(C2CCN(C)CC2)CC1,0%
O=C(Nc1ccccc1Oc1ccccc1)C(F)(F)F,i
COc1ccc(C(=O)NCc2nnc(SCc3ccc(Cl)cc3)n2-c2ccccc2)cc1,29%
CCCCc1ccc(OC(=O)CSc2ccc(S(C)(=O)=O)cc2[N+](=O)[O-])cc1,i
